NOMO-1 viab = NOMO-1 AML cell viability reduction, primary screen, STK33 inhibitor project, CellTiter-Glo luminescence | actives 7.5% (n = 37,000) | inhibition, % (no concentration beside the values) | NOMO-1 AML viability, 72 h | AID 2330, 2010;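 active = most replicates above 80%; inconclusive = exactly half above 80%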;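 also: wells of about 30 µL received 25 nL stock; 0% = median of vehicle wells and 100% = reference inhibitor level; the first replicate is given; inactives centre near 10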
Numbers without * were called inactive; ? = inconclusive. The list is partial; rates above refer to the full screens.

SMILES	NOMO-1 viab
C[C@@H]1O[C@@H](Oc2ccc(-c3coc4cc(O[C@@H]5O[C@@H](C)[C@H](O)[C@@H](O)[C@H]5O)cc(O)c4c3=O)cc2)[C@H](O)[C@H](O)[C@H]1O	23.1
O=C(O)C1C2CCC(O2)C1C(=O)Nc1ccc(S(=O)(=O)N2CCc3ccccc32)cc1 (configuration not stated)	-0.7
O=C(c1cccs1)N1c2ccccc2Sc2ccccc21	47.7
C[C@@H]1CN([C@H](C)CO)C(=O)c2cccc(NC(=O)c3ccncc3)c2O[C@H]1CN(C)S(=O)(=O)c1cn(C)cn1	21.9
N#Cc1c(NC(=O)CSc2nnc(-c3ccccc3O)n2-c2ccccc2)sc2c1CCCC2	-16.8
Cc1cccc(OCC(=O)Nc2ccccc2CO)c1C	1.7
C[C@H]1CN([C@@H](C)CO)C(=O)Cc2cc(NS(C)(=O)=O)ccc2O[C@@H]1CN(C)C(=O)Nc1ccc(C(F)(F)F)cc1	0.2
C[C@H]1CN([C@@H](C)CO)C(=O)c2cccc(NC(=O)C3CC3)c2O[C@@H]1CN(C)S(=O)(=O)c1cccs1	1.7
C[C@H]1CN([C@@H](C)CO)C(=O)c2cc(NC(=O)Cc3ccccc3)ccc2O[C@H]1CN(C)S(=O)(=O)c1ccccc1	37.7
C[C@H]1CN([C@@H](C)CO)C(=O)Cc2cc(NC(=O)CCC(F)(F)F)ccc2O[C@H]1CN(C)Cc1ccc2c(c1)OCO2	30.9
CCCOc1ccc(C2C3=C(CCCC3=O)OC3=C2C(=O)CCC3)cc1OCC	38.0
CNC[C@@H]1Oc2c(NC(=O)Nc3ccc4c(c3)OCO4)cccc2C(=O)N([C@@H](C)CO)C[C@@H]1C	6.1
C[C@H](CO)N1C[C@H](C)[C@H](CN(C)Cc2ccc3c(c2)OCO3)Oc2ccc(NC(=O)Cc3ccccc3)cc2CC1=O	7.2
C[C@@H]1CN([C@H](C)CO)C(=O)c2cc(NC(=O)CCCCCC(=O)Nc3ccccc3N)ccc2O[C@H]1CN(C)S(=O)(=O)c1ccc(F)cc1	6.0
C[C@@H]1CCCCO[C@H](CN(C)Cc2ccc(C(=O)O)cc2)[C@@H](C)CN([C@H](C)CO)C(=O)c2cc(NS(=O)(=O)c3ccc(Cl)cc3)ccc2O1	-13.4
COc1ccc(NC(=O)N(C)C[C@H]2Oc3ccc(NC(=O)CCC(F)(F)F)cc3C(=O)N([C@@H](C)CO)C[C@@H]2C)cc1	-16.8
COc1ccc(S(=O)(=O)Nc2ccc3c(c2)C(=O)N([C@H](C)CO)C[C@H](C)[C@@H](CN(C)Cc2ccc(C(F)(F)F)cc2)OCCCC[C@@H](C)O3)cc1	?
CC(C)NC(=O)N(C)C[C@H]1Oc2ccc(NC(=O)Nc3ccccc3)cc2CC(=O)N([C@H](C)CO)C[C@H]1C	-8.6
COc1ccccc1NC(=O)CNC(=O)c1ccc(OC)c(OC)c1	2.1
O=C(CSc1nc2[nH]ncc2c(=O)n1-c1ccccc1)Nc1nsc(-c2ccccc2)n1	18.3
O=C(Nc1ccccc1[N+](=O)[O-])c1cc(S(=O)(=O)Nc2ccccc2)c(Cl)cc1Cl	-4.9
N#Cc1ccc(NC(=O)CCN2C(=O)c3ccccc3C2=O)cc1	32.7
C[C@H](CO)N1C[C@H](C)[C@H](CN(C)S(=O)(=O)c2cccs2)Oc2ccc(NC(=O)C3CC3)cc2C1=O	-8.2
CCOC(=O)c1c(NC(=O)c2ccc(NS(C)(=O)=O)cc2)sc2c1CCCC2	5.9
Cc1nnc(SCc2nc(N)nc(Nc3ccccc3)n2)s1	-1.1
C[C@H]1CN([C@@H](C)CO)C(=O)Cc2cc(NS(=O)(=O)c3ccc(F)cc3)ccc2O[C@H]1CN(C)Cc1ccc(-c2ccccc2)cc1	107.6*
COc1ccc(OC)c(NC(=O)CN(c2ccc(F)c(Cl)c2)S(C)(=O)=O)c1	13.7
CC1C(c2ccccc2)O/C(=N\S(=O)(=O)c2ccc(Cl)cc2)N1C (configuration not stated)	0.9
C[C@@H]1CN([C@H](C)CO)C(=O)c2cccc(NC(=O)c3ccncc3)c2O[C@@H]1CN(C)Cc1ccccc1	-17.2
C[C@@H]1CN([C@@H](C)CO)C(=O)c2cc(NC(=O)Nc3cccc4ccccc34)ccc2O[C@H]1CN(C)S(=O)(=O)c1ccccc1	12.8
C[C@H]1CN([C@@H](C)CO)C(=O)c2cc(NC(=O)CCCCCC(=O)Nc3ccccc3N)ccc2O[C@H]1CN(C)C(=O)NC1CCCCC1	37.8
CS(=O)(=O)N(CC(=O)Nc1ccc2c(c1)OCCO2)c1cccc(F)c1	11.8
C[C@@H]1CN([C@@H](C)CO)C(=O)c2cc(NC(=O)Nc3cccc4ccccc34)ccc2O[C@H]1CN(C)C	16.9
O=S(=O)(Cc1nc(-c2ccccc2Cl)cs1)c1cccs1	0.3
COc1ccc(NC(=O)Nc2ccc3c(c2)CC(=O)N([C@H](C)CO)C[C@H](C)[C@H](CN(C)S(C)(=O)=O)O3)cc1	16.3
Cc1ccc(NC(=O)CSc2ncccn2)cc1C	3.4
C[C@H](CO)N1C[C@H](C)[C@H](CN(C)Cc2ccc(-c3ccccc3)cc2)Oc2ccc(NC(=O)Cc3cn(C)c4ccccc34)cc2CC1=O	50.3
C[C@@H]1CN([C@@H](C)CO)C(=O)c2cc(NC(=O)Nc3cccc4ccccc34)ccc2O[C@H]1CN(C)S(=O)(=O)c1ccc(F)cc1	2.7
COc1ccc(NC(=O)N(C)C[C@@H]2Oc3c(NC(=O)Nc4ccccc4)cccc3C(=O)N([C@@H](C)CO)C[C@H]2C)cc1	0.6
COc1c(C2OCC(OC(C)=O)C(OC(C)=O)C2OC(C)=O)c(O)cc2oc(-c3ccc(OC4OC(CO)C(O)C(O)C4O)cc3)cc(=O)c12 (configuration not stated)	7.6
Cc1ccc(-c2nc3ccccc3o2)cc1NC(=O)COc1ccccc1	72.7
CC(C)NC(=O)N(C)C[C@@H]1Oc2ccc(NC(=O)CCCN(C)C)cc2C(=O)N([C@H](C)CO)C[C@@H]1C	33.9
C[C@H](CO)N1C[C@H](C)[C@H](CN(C)CC2CCCCC2)Oc2ccc(NC(=O)CCCN(C)C)cc2CC1=O	25.7
C[C@@H]1CN([C@H](C)CO)C(=O)c2cccc(NS(=O)(=O)c3ccc(Cl)cc3)c2O[C@@H]1CN(C)Cc1ccc(Cl)c(Cl)c1	33.7
C[C@@H]1CN([C@@H](C)CO)C(=O)Cc2cc(NC(=O)NC3CCCCC3)ccc2O[C@@H]1CN(C)Cc1ccc(Cl)c(Cl)c1	110.7*
COC1OC(=O)C(CCC2(C)C(C)CCC3(C)C2CC(O)C(O)C32CO2)C1O (configuration not stated)	12.5
C[C@H](CO)N1C[C@H](C)[C@H](CN(C)Cc2ccc(Oc3ccccc3)cc2)Oc2ccc(NC(=O)Nc3ccccc3)cc2CC1=O	45.3
C[C@@H]1CCCCO[C@H](CN(C)Cc2ccccc2)[C@@H](C)CN([C@H](C)CO)C(=O)c2cc(NS(=O)(=O)c3ccccc3)ccc2O1	27.5
C[C@@H]1CN([C@H](C)CO)C(=O)Cc2cc(NC(=O)Cn3cnnn3)ccc2O[C@@H]1CN(C)Cc1ccc(Cl)c(Cl)c1	17.5
C[C@H]1CN([C@@H](C)CO)C(=O)Cc2cc(NS(=O)(=O)c3cccs3)ccc2O[C@H]1CN(C)Cc1ccc(Cl)c(Cl)c1	17.9
C[C@H]1CN([C@@H](C)CO)C(=O)Cc2cc(NC(=O)Nc3ccc(F)cc3)ccc2O[C@@H]1CN(C)S(=O)(=O)c1cn(C)cn1	-17.0
C[C@H]1CN([C@@H](C)CO)C(=O)Cc2cc(NC(=O)CCCN(C)C)ccc2O[C@@H]1CN(C)Cc1ccc(Oc2ccccc2)cc1	24.6
CCCCCC(=O)Cc1cc(O)c(O)c2c1C(=O)Oc1cc(O)c(C(=O)O)c(CCCCC)c1O2	107.7*
C[C@H](CO)N1C[C@H](C)[C@H](CN(C)S(=O)(=O)c2cccs2)Oc2ccc(NS(=O)(=O)c3cccs3)cc2CC1=O	6.3
COc1cc(OC)c(OC)cc1CN1CCN(Cc2ccccn2)CC1	-1.7
O=S(=O)(/N=C1\SCCN1S(=O)(=O)c1ccc(Cl)cc1)c1ccc(Cl)cc1	32.1
C[C@@H]1CN([C@H](C)CO)C(=O)Cc2cc(NC(=O)Nc3ccc(C(F)(F)F)cc3)ccc2O[C@@H]1CN(C)C(=O)Nc1ccc(F)cc1	62.4
C[C@@H]1CN([C@H](C)CO)C(=O)Cc2cc(NS(=O)(=O)c3ccccc3)ccc2O[C@H]1CN(C)Cc1ccc(-c2ccccc2)cc1	?
Cc1ccc(S(=O)(=O)N(CC(=O)O)c2ccc(Br)cc2)cc1	-4.6
COc1ccc(NC(=O)CN(c2ccc(Br)c(C)c2)S(C)(=O)=O)cc1OC	-6.7

Single values from the results shown.
In NOMO-1 viab, C[C@@H]1CN([C@H](C)CO)C(=O)Cc2cc(NC(=O)Cn3cnnn3)ccc2O[C@@H]1CN(C)Cc1ccc(Cl)c(Cl)c1 has 17.5
In NOMO-1 viab, C[C@@H]1CN([C@@H](C)CO)C(=O)Cc2cc(NC(=O)NC3CCCCC3)ccc2O[C@@H]1CN(C)Cc1ccc(Cl)c(Cl)c1 has 110.7*
In NOMO-1 viab, C[C@H]1CN([C@@H](C)CO)C(=O)Cc2cc(NC(=O)Nc3ccc(F)cc3)ccc2O[C@@H]1CN(C)S(=O)(=O)c1cn(C)cn1 has -17.0

Another view of part of the listing above:
| molecule | NOMO-1 viab |
| --- | --- |
| C[C@H]1CN([C@@H](C)CO)C(=O)Cc2cc(NC(=O)CCC(F)(F)F)ccc2O[C@H]1CN(C)Cc1ccc2c(c1)OCO2 | 30.9 |
| C[C@@H]1CN([C@H](C)CO)C(=O)c2cc(NC(=O)CCCCCC(=O)Nc3ccccc3N)ccc2O[C@H]1CN(C)S(=O)(=O)c1ccc(F)cc1 | 6.0 |

Later entries:
SMILES	NOMO-1 viab
Cc1noc(C)c1NC(=O)N(C)C[C@@H]1Oc2ccc(NC(=O)C3CCCCC3)cc2C(=O)N([C@@H](C)CO)C[C@@H]1C	15.1
C[C@@H]1CN([C@H](C)CO)C(=O)c2cccc(NC(=O)C3CCOCC3)c2O[C@@H]1CN(C)Cc1ccc(Oc2ccccc2)cc1	27.4
Cc1cc(C(=O)Nc2cccc3c2O[C@@H](CN(C)Cc2ccc(C(=O)O)cc2)[C@@H](C)CN([C@@H](C)CO)C3=O)n(C)n1	8.5
C[C@@H]1CN([C@@H](C)CO)C(=O)c2cccc(N(C)C)c2O[C@H]1CN(C)Cc1ccccc1	14.1
C[C@H](CO)N1C[C@H](C)[C@@H](CN(C)Cc2ccc(C(F)(F)F)cc2)Oc2c(NC(=O)c3nc4ccccc4s3)cccc2C1=O	106.1*
C[C@H]1CN([C@@H](C)CO)C(=O)c2cccc(NC(=O)Nc3ccc(C(F)(F)F)cc3)c2O[C@@H]1CN(C)S(=O)(=O)c1ccc(Cl)cc1	65.6
Cc1noc(C)c1NC(=O)Nc1ccc2c(c1)CC(=O)N([C@@H](C)CO)C[C@H](C)[C@@H](CN(C)Cc1ccc3c(c1)OCO3)O2	-6.2
C[C@@H]1CN([C@@H](C)CO)C(=O)c2cc(NC(=O)NC3CCCCC3)ccc2O[C@@H]1CN(C)Cc1ccc(C(=O)Nc2ccccc2N)cc1	107.0*
Cc1noc(C)c1S(=O)(=O)Nc1ccc2c(c1)CC(=O)N([C@H](C)CO)C[C@@H](C)[C@@H](CN(C)S(=O)(=O)c1cn(C)cn1)O2	12.0
COc1cc(OC)c2c(c1O)OC(c1ccccc1)CC2=O (configuration not stated)	20.4

Of the compounds above, 11 contain a Cl atom:
SMILES	NOMO-1 viab
C[C@@H]1CCCCO[C@H](CN(C)Cc2ccc(C(=O)O)cc2)[C@@H](C)CN([C@H](C)CO)C(=O)c2cc(NS(=O)(=O)c3ccc(Cl)cc3)ccc2O1	-13.4
O=C(Nc1ccccc1[N+](=O)[O-])c1cc(S(=O)(=O)Nc2ccccc2)c(Cl)cc1Cl	-4.9
COc1ccc(OC)c(NC(=O)CN(c2ccc(F)c(Cl)c2)S(C)(=O)=O)c1	13.7
CC1C(c2ccccc2)O/C(=N\S(=O)(=O)c2ccc(Cl)cc2)N1C (configuration not stated)	0.9
O=S(=O)(Cc1nc(-c2ccccc2Cl)cs1)c1cccs1	0.3
C[C@@H]1CN([C@H](C)CO)C(=O)c2cccc(NS(=O)(=O)c3ccc(Cl)cc3)c2O[C@@H]1CN(C)Cc1ccc(Cl)c(Cl)c1	33.7
C[C@@H]1CN([C@@H](C)CO)C(=O)Cc2cc(NC(=O)NC3CCCCC3)ccc2O[C@@H]1CN(C)Cc1ccc(Cl)c(Cl)c1	110.7*
C[C@@H]1CN([C@H](C)CO)C(=O)Cc2cc(NC(=O)Cn3cnnn3)ccc2O[C@@H]1CN(C)Cc1ccc(Cl)c(Cl)c1	17.5
C[C@H]1CN([C@@H](C)CO)C(=O)Cc2cc(NS(=O)(=O)c3cccs3)ccc2O[C@H]1CN(C)Cc1ccc(Cl)c(Cl)c1	17.9
O=S(=O)(/N=C1\SCCN1S(=O)(=O)c1ccc(Cl)cc1)c1ccc(Cl)cc1	32.1
C[C@H]1CN([C@@H](C)CO)C(=O)c2cccc(NC(=O)Nc3ccc(C(F)(F)F)cc3)c2O[C@@H]1CN(C)S(=O)(=O)c1ccc(Cl)cc1	65.6
